Screening results as filed in PubChem BioAssay.
Insulin prom inh: TRM-6 insulin promoter activity inhibition. inhibition, % at 2 µM. actives 0.9% (n = 130,000). TRM-6 cells (human fetal islet line), insulin promoter-eGFP reporter, imaging; reporter expression induced with tamoxifen;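 active = inhibition above the mean plus 3 SD, with well images judged a real hit on visual review, cut at about 60% in these data, passing the limit was not always enough; inconclusive = inhibition over the cutoff but images rejected on review; inactive = inhibition not above the cutoff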
PKD1 inh: blocks activity of human protein kinase D1; AID 797; inhibition, %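 (about 10 µM by stock and volumes)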; actives 0.056% (n = 200,000); PKD1 kinase fluorescence polarization assay; Q15139;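 active = inhibition of 50% or more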;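 also: controls were vehicle for no effect and a reference inhibitor for full effect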
HSV augment: HSV replication enhancement. HSV replication augmentation in cells, fold increase. maximum fold increase. actives 0.005% (n = 220,000). AID 1956;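 active = peak rise of 1.5-fold or more in the series; inconclusive = self-fluorescent or not available for retest; tested in PC3 cells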;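 also: first round at 10 µM; read as green reporter fluorescence; hits show the peak of a series up to 25 µM; 1 = signal of infected wells without compound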
GALR2 agonist: GALR2 (human) receptor agonism; activation, %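 (tested at 5 µM)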; AID 803; actives 0.48% (n = 140,000); GALR2-expressing cells, agonist activation read-out;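 active = above mean plus 3 SD of all compounds, about 5% in these data, not always enough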;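 also: 0% = vehicle buffer wells and 100% = reference agonist at full effect; tested in CHO reporter cells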
Target sequence (O43603 whole entry, looked up): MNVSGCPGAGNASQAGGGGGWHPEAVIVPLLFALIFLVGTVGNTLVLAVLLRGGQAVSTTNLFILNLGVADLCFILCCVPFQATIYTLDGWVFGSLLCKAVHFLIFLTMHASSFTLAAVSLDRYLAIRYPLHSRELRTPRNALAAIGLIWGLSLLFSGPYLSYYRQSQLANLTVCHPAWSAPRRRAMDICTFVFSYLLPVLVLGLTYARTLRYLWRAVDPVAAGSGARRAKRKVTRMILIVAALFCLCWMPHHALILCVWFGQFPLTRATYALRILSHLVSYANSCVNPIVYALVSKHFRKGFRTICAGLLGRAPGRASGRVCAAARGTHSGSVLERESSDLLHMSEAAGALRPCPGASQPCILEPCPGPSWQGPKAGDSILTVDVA
RGS16-Gao HTS: modulates binding between human RGS16 and Galphao; bead-based flow cytometry RGS16-Galphao binding, fluorescence; actives lie on both sides; binding response (% of control), % at 10 µM; actives 0.38% (n = 220,000);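 active = below 25% or above 175%, edge rows of some plates excepted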;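 also: Galphao activated by GDP with aluminum fluoride before binding; 100% = wells without compound and 0% = beads without RGS; some results beyond the cut were filed as inactive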
Target sequence (O15492 whole entry, looked up): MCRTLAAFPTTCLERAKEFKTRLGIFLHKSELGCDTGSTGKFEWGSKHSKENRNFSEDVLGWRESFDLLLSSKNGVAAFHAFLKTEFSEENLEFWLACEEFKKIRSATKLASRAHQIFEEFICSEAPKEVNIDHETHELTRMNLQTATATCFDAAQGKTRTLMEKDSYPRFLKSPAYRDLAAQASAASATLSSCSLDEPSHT
Target sequence (P09471 whole entry, looked up): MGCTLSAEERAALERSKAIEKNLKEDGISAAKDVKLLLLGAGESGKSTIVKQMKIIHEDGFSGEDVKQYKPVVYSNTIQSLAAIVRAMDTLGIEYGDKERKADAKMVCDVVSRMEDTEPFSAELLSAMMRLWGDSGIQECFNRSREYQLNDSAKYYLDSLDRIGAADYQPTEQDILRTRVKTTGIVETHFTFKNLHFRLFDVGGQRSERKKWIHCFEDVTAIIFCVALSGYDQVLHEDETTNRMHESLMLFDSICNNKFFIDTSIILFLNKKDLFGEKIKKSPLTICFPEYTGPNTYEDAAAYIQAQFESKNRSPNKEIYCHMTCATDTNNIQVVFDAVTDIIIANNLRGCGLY
Insulin prom inh cell count: further read-out of Insulin prom inh, marked with its call; normalized cell count, %; measured here: cell count, toxicity; reference of the scale not given here;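 cells exposed to compound for 48 h; stained nuclei by imaging scaled within each plate; lower means fewer cells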
HSV augment primary fold: further read-out of HSV augment, marked with its call; fold increase; compound at 10 µM; measured here: primary screen fold increase 10 uM; tested in PC3 cells;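 GFP signal in the first replicate; 1 = infected wells without compound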
* = called active by the depositor; i = inactive; ? = inconclusive; / = not tested or not shown.

SMILES	Insulin prom inh	Insulin prom inh cell count	PKD1 inh	HSV augment	HSV augment primary fold	GALR2 agonist	RGS16-Gao HTS
COc1cc(C(=O)Nc2ccc3c(c2)OCO3)ccc1OCc1c(C)noc1C	/	/	-1	i	0.92	/	101
COC(=O)C1(C(C[N+](=O)[O-])c2ccco2)C(=O)NCC1c1ccccc1 (stereo not given)	/	/	/	i	1	/	105
O=C1c2ccccc2CC1Sc1nnc(-c2ccccn2)o1 (stereo not given)	14	57	-2	i	1	-1.5	71
CCOCCCn1c(SCC(=O)NCc2ccc3c(c2)OCO3)nc2ccccc2c1=O	-113	84	0	i	0.95	/	100
CC(=O)Nc1ccc(NC(=O)CN(c2cc(Cl)ccc2Cl)S(C)(=O)=O)cc1	/	/	-4	i	1.1	/	100
Cc1cccc2nc(COc3ccc(-c4ccccc4)cc3)cn12	/	/	-3	i	0.97	/	110
Cc1cc(C)nc(N2CCC(C(=O)NCCc3ccc(Cl)cc3)CC2)n1	24	59	1	i	0.93	/	100
COc1ccccc1OCCSc1nc(N)cc(N)n1	-11	135	0	i	0.85	1.7	118
Cc1c(Cl)c([N+](=O)[O-])nn1CCCC(=O)Nc1cccnc1	/	/	2	i	0.87	/	100
CCn1c(SCC(=O)NNC(=O)c2ccco2)nnc1-c1ccco1	-13	100	0	i	1	/	109
Cc1ccc(C)c(-n2c(SCC(=O)N3CCCC3)nnc2-c2ccccn2)c1	/	/	2	i	0.94	-1.3	75
O=C(NCCN1CCN(C(=O)NC2CCCCC2)CC1)NC1CCCCC1	38	93	-12	i	1.1	-1.0	102
O=C(Oc1ccc2ccc(=O)oc2c1)C1CCCCC1	11	103	-5	i	0.89	1.4	102
Cc1onc(-c2c(F)cccc2Cl)c1C(=O)c1ccc(F)cc1	/	/	/	i	1	/	101
O=C(NC1=NCCS1)C1CC(=O)N(c2ccccc2)C1 (stereo not given)	/	/	8	i	0.94	-0.8	94
Cn1cc(S(=O)(=O)N2CCC3(CC2)OCCO3)c(=O)n(C)c1=O	/	/	0	i	0.84	/	104
FC(F)(F)c1cc(-c2ccco2)nc(-n2cnc3ccccc32)n1	/	/	-1	i	0.96	-2.9	105
CCS(=O)(=O)N1CCN(C(=O)C(c2ccccc2)c2ccccc2)CC1	-25	109	-3	i	0.98	-0.5	111
C=CCn1cc(-c2ccc(Cl)cc2)cc(C#N)c1=O	-35	61	-2	i	0.99	-2.8	87
CC(C)CCn1c(=O)c2ccccc2n2c(CN3CCCC3)nnc12	/	/	-2	i	0.93	/	101
COc1cccc(N2CCN(S(=O)(=O)c3cccc4nsnc34)CC2)c1	-14	114	2	i	1	/	93
Cc1cc(=O)nc2c3ccccc3n(C(C)C(=O)Nc3cc(F)ccc3F)n12 (stereo not given)	/	/	/	i	0.67	/	103
O/N=C/c1cc(Cl)ccc1OCc1cccc2ccccc12	27	122	3	i	0.98	-0.1	97
COCCNC(=O)c1ccc(CS(=O)(=O)c2ccc(Cl)cc2)o1	/	/	-2	i	1	-1.0	99
COc1ccc(-n2c(-c3ccc(Br)cc3)nc(=S)c3c2CCCC3)cc1	/	/	-4	i	0.9	0.3	106

Individual results from the entries so far:
Result of CCS(=O)(=O)N1CCN(C(=O)C(c2ccccc2)c2ccccc2)CC1 under GALR2 agonist: -0.5
Result of Cc1ccc(C)c(-n2c(SCC(=O)N3CCCC3)nnc2-c2ccccn2)c1 under PKD1 inh: 2

The main list resumes with the six entries that preceded the break.
SMILES	Insulin prom inh	Insulin prom inh cell count	PKD1 inh	HSV augment	HSV augment primary fold	GALR2 agonist	RGS16-Gao HTS
CC(C)CCn1c(=O)c2ccccc2n2c(CN3CCCC3)nnc12	/	/	-2	i	0.93	/	101
COc1cccc(N2CCN(S(=O)(=O)c3cccc4nsnc34)CC2)c1	-14	114	2	i	1	/	93
Cc1cc(=O)nc2c3ccccc3n(C(C)C(=O)Nc3cc(F)ccc3F)n12 (stereo not given)	/	/	/	i	0.67	/	103
O/N=C/c1cc(Cl)ccc1OCc1cccc2ccccc12	27	122	3	i	0.98	-0.1	97
COCCNC(=O)c1ccc(CS(=O)(=O)c2ccc(Cl)cc2)o1	/	/	-2	i	1	-1.0	99
COc1ccc(-n2c(-c3ccc(Br)cc3)nc(=S)c3c2CCCC3)cc1	/	/	-4	i	0.9	0.3	106
CCc1cc(C(=O)NNC(=S)Nc2cc(C)ccc2C)cs1	-108	132	5	i	0.86	-2.7	108
Cn1cc(CNCCN2CCCCC2=O)c(-c2cccc(Cl)c2)n1	-22	132	-10	i	0.86	/	108
CCOc1ccc(Oc2c(/C=N/NC(N)=O)c(C)nn2-c2ccccc2)cc1	/	/	-8	i	0.93	0.7	112
Cc1cc(C(F)F)n2ncc(C(=O)N3CCC(C(N)=O)CC3)c2n1	-10	72	5	i	1.1	-0.6	100
O=C(C1CCCCC1)N1CCN=C1SCc1cccnc1	/	/	-16	i	0.99	-0.5	102
O=C(Cc1ccccc1)NCC(=O)OCC(=O)c1cccs1	/	/	-6	i	0.96	-1.9	104
COc1ccc(N(CN2C(=O)C3C4C=CC(C4)C3C2=O)C(=O)c2ccco2)cc1 (stereo not given)	/	/	-13	/	/	-1.9	117
COc1cc(C(=O)OCC(=O)NC(=O)c2cccn2C)ccc1OC(F)F	/	/	9	i	1.1	/	93
C/C(=N\O)C(=O)NCCN(C)C	/	/	-1	i	0.99	-0.4	97
Nc1cccc(-n2nncc2-c2ccccc2)c1	44	95	12	i	0.84	-2.6	95
NC(=O)C1=NOC(CNc2ncc(C(F)(F)F)cc2Cl)C1 (stereo not given)	22	187	3	i	1	-3.3	100
COc1ccc(Cn2nnnc2C(C(C)C)N2CCc3ccccc32)cc1 (stereo not given)	15	107	-5	i	1.1	-2.0	187
COc1cc(NC(=O)C/C(C)=N/NC(=O)Cc2ccc(Cl)cc2)c(OC)cc1Cl	/	/	1	i	1.1	-1.1	102
COc1ccccc1S(=O)Cc1ccc(C(=O)O)o1 (stereo not given)	/	/	6	i	0.97	-1.6	106
CC1(C)Cc2ccccc2-c2nnc(-c3cccnc3)n21	36	76	5	/	/	-0.3	98
Cc1cccc(NC(=S)NNC(=O)c2csc(C(C)C)c2)c1	50	116	-2	i	0.85	-2.4	99
O=C(c1cccs1)N(C(=O)c1cccs1)c1ccc(Br)cn1	29	84	1	i	0.73	-3.6	105
COc1ccccc1-c1nc(COc2ccc(Cl)cc2Cl)no1	/	/	/	i	0.94	/	103
CC(OC(=O)c1cc2sccc2n1C)C(=O)NCc1cccs1 (stereo not given)	-66	125	0	i	1.1	-1.5	104
CCOC(=O)c1nn(-c2ccc(Cl)cc2)c2nnc(Cc3ccccc3)c(=O)n12	3	106	7	i	1.1	-0.5	86
O=C(NCC1OCCc2ccccc21)c1cc(COc2c(F)cccc2F)on1 (stereo not given)	/	/	-1	i	1.1	/	94
O=C(Cn1cnc2cc([N+](=O)[O-])ccc2c1=O)Nc1ccc(N2CCOCC2)cc1	/	/	/	?	/	/	98
Cc1cccc(/C=C/C(=O)c2cc(Br)ccc(=O)c2O)c1	-17	98	6	i	1	-0.9	97
Cc1cc(C(=O)C(C)Cl)c(C)n1Cc1ccco1 (stereo not given)	50	101	2	i	1.1	/	80
COc1ccc(NC(=O)CN2CCC(C(N)=O)(N3CCCCC3)CC2)c(OC)c1	/	/	-9	i	0.91	/	106
Following part.
SMILES	Insulin prom inh	Insulin prom inh cell count	PKD1 inh	HSV augment	HSV augment primary fold	GALR2 agonist	RGS16-Gao HTS
CCCCCCCCCCCCS[C@H]1CS(=O)(=O)C[C@@H]1O	/	/	/	i	0.97	/	101
Cc1ccc(-n2cc(-c3ccccc3)c3c(N4CCOCC4)ncnc32)cc1	8	176	-5	i	0.89	/	107
O=C(CCN1CCCCC1)N/N=C/c1ccc(Br)cc1	8	102	-19	i	0.92	-0.6	105
CN1C(=S)SC(/[N+]([O-])=C\c2ccccc2)C1(C)C (stereo not given)	-23	142	-7	i	1	0.0	101
Cc1cc(O)c(NC(=O)c2cc([N+](=O)[O-])ccc2Cl)cc1C	40	134	1	i	0.61	/	108
O=C(Cn1c(C(F)(F)F)nc2ccccc21)Nc1ccccc1N1CCOCC1	-70	89	2	i	0.97	-1.5	42
CS(=O)(=O)N(CCc1ccccc1)CC(=O)N1CCc2ccccc2C1	21	93	-2	i	0.88	-2.2	98
COc1ccc(N=C2SCC(c3ccc(C)cc3)=NN2CCO)cc1	/	/	/	i	1.1	/	97
O=C(Cn1c(=O)c2ccccc2n(CC(=O)N2CCCCC2)c1=O)N1CCCCC1	/	/	/	i	0.96	/	108
O=S(=O)(NCCSc1ccc(Cl)cc1)c1ccc(F)cc1	-27	144	-14	i	1	-1.9	87
COc1ccc(NS(=O)(=O)c2ccc(NC(=O)c3ccc(CN4CCOCC4)cc3)cc2)cc1	13	160	2	i	0.89	/	101
COc1ccc(N2CCN(C(=O)C3CCN(S(=O)(=O)c4ccc(F)cc4)CC3)CC2)cc1	/	/	-2	i	0.88	/	103
Cc1ccc(NS(=O)(=O)c2ccc(N3CCN(c4ccc(O)cc4)CC3)c([N+](=O)[O-])c2)c(C)c1	21	91	6	i	0.99	0.9	106
Cc1csc(NC(=O)CSc2ccc(-c3ccccc3)nn2)n1	-33	111	-8	i	0.84	/	104
CCOC(=O)C(CC)Sc1ncnc2c1nnn2-c1ccc(F)cc1 (stereo not given)	-73	99	0	i	0.87	-1.8	109
O=C(O)c1ccc(-n2nnnc2SCc2ccccc2F)cc1	/	/	0	i	0.87	-2.8	100
COc1ccc(C2CC(c3ccccc3OC(=O)/C=C/c3ccccc3)=NN2C(C)=O)cc1 (stereo not given)	/	/	/	i	1	/	97
COc1cc(C(c2sc3nc(C)nn3c2O)N2CC(C)OC(C)C2)cc(OC)c1OC (stereo not given)	/	/	8	i	0.55	-0.2	104
O=C(COc1ccccc1)N(Cc1ccco1)C1CCS(=O)(=O)C1 (stereo not given)	/	/	-15	i	0.82	-0.7	105
CC(=O)OCC(=O)[C@@]12OC(C)(C)O[C@@H]1C[C@H]1[C@@H]3C[C@H](F)C4=CC(=O)C=C[C@]4(C)[C@@]3(F)[C@@H](O)C[C@@]12C	-14	63	-8	i	0.94	1.1	119
CC(C)c1ccc(NC(=O)c2csnn2)cc1	/	/	-12	i	1.1	-2.1	106
COc1ccc(OC)c(NC(=O)NNC(=O)CCCOc2ccc(Cl)cc2C)c1	/	/	-2	i	0.95	/	104
CCCCN1C(=O)CN(CCc2ccccc2)C(=O)C1c1ccc(OC)cc1 (stereo not given)	-12	86	0	i	0.86	-1.4	99
CCCSc1cc(N2CCCC2)nc(-c2ccccc2)n1	/	/	8	i	1.1	-0.1	101
COC(=O)c1cc(NC(=O)c2cc(-c3ccccc3Cl)oc2C(F)(F)F)ccc1N1CCOCC1	/	/	/	i	0.86	/	100
COc1ccc(/C=C/c2nc3ccccc3n2Cc2ccccc2OC)cc1	-26	85	1	i	1	-0.1	100
OC(COc1ccc2c(c1)CCC2)CN1CCN(c2cccc(Cl)c2)CC1 (stereo not given)	-77	102	0	i	1.1	-1.7	96
OCCCNC(c1ccccc1)c1ccc(O)cc1 (stereo not given)	64	146	-4	i	0.96	-1.2	108

Laid out differently: four of the compounds above.
C=CCn1cc(-c2ccc(Cl)cc2)cc(C#N)c1=O
  Insulin prom inh: -35	Insulin prom inh cell count: 61	PKD1 inh: -2	HSV augment: i	HSV augment primary fold: 0.99	GALR2 agonist: -2.8	RGS16-Gao HTS: 87

CC(=O)Nc1ccc(NC(=O)CN(c2cc(Cl)ccc2Cl)S(C)(=O)=O)cc1
  Insulin prom inh: /	Insulin prom inh cell count: /	PKD1 inh: -4	HSV augment: i	HSV augment primary fold: 1.1	GALR2 agonist: /	RGS16-Gao HTS: 100

CCc1cc(C(=O)NNC(=S)Nc2cc(C)ccc2C)cs1
  Insulin prom inh: -108	Insulin prom inh cell count: 132	PKD1 inh: 5	HSV augment: i	HSV augment primary fold: 0.86	GALR2 agonist: -2.7	RGS16-Gao HTS: 108

COc1ccccc1OCCSc1nc(N)cc(N)n1
  Insulin prom inh: -11	Insulin prom inh cell count: 135	PKD1 inh: 0	HSV augment: i	HSV augment primary fold: 0.85	GALR2 agonist: 1.7	RGS16-Gao HTS: 118
